Bioassay records (PubChem BioAssay)
NPYLR7 agonist = agonists of mosquito NPYLR7 receptor, primary screen, cell-based, Aedes aegypti, calcium fluorescence, mosquito biting behavior; HEK293T NPYLR7/Galpha15, GCaMP6s calcium fluorescence; activation, % at 10 µM; actives 0.15% (n = 270,000); AID 1259423, 2018; in the data active means activation above about 40%;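 further: 0% = vehicle and 100% = reference agonist at the receptor; some compounds past the cut are filed as inactive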
NPYLR7 agonist max-min = recorded beside NPYLR7 agonist, whose call it bears; activation, %; measured here: Max-Min RFU normalised activation; some inactives read as strong as hits;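 span of the calcium signal over five minutes; 0% = vehicle and 100% = native peptide agonist; compound fluorescence can raise it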
* marks the source's active call; other numbers are inactive results; & = joins results of further samples.

SMILES	NPYLR7 agonist	NPYLR7 agonist max-min
CCCCCCNC(CC(=O)Nc1ccc2ccccc2c1)C(=O)O (stereo unspecified)	5	1
CC(C)N(Cc1cnn(C)c1)C(=O)c1ncc[nH]1	1	2
Cc1noc(C)c1CN1C(=O)CC(Cc2ccc(F)cc2)C1=O (stereo unspecified)	1	-1
Cc1n[nH]c(=O)c(C(=O)NC2CCCN(c3cccc(F)c3)C2)c1C (stereo unspecified)	-5	-6
O=c1c(-c2ccccc2)nnc2sc(CCc3ccccc3)nn12	1	5
Cc1cc(C(=O)Nc2ccc(Br)cc2F)c(C)s1	-5	-6
COCCCNc1nc2nonc2nc1N1CCN(C)C[C@@H]1c1ccccc1	8&13	9&5
COc1ccc(NC(C)=O)cc1S(=O)(=O)N(CC(F)(F)F)C1CC1	4	1
COc1ccc(OC)c(-n2c(CNC(=O)COc3ccccc3)nnc2SCC(=O)Nc2nccs2)c1	-3	3
CCNC(=O)N(C)Cc1cccc(N2CCN(C(=O)c3c(Cl)cccc3Cl)CC2)c1F	1	6
Cc1cc(C)n(-c2ccc(CNC(=O)C(C)C)c(C(F)(F)F)c2)n1	3	2
Cc1ccc(-c2nc3nc(N)n(C)c(=O)c3nc2-c2ccc(C)cc2)cc1	1	7
O=C(Nc1ccc(-c2nc3cc(Cl)ccc3o2)cc1)c1ccccc1F	3	-4
C=CCCCCCCCCC(=O)N1CCC(c2cn(C)c3ccc(C)cc23)CC1	28	14
Cc1ccc2c(c1)C(C)(C)OC2=O	-8	-9
NC(=O)C1CCN(C(c2ccccc2)C2Sc3ncnn3C2=O)CC1 (stereo unspecified)	22	20
CC(C)C(=O)N(C)CCN1C(=O)C(C)SC1c1ccccc1F (stereo unspecified)	-1	2
Cc1cc(C)nc(SCCCn2c(N3CCCC(C)C3)nc3c2c(=O)[nH]c(=O)n3C)n1 (stereo unspecified)	-2	-4
O=C(CN1CCN(C(=O)C2CCCO2)CC1)NC(=O)NC1CCCCC1 (stereo unspecified)	7	11
O=C(NNC(=O)c1ccc[nH]c1=O)c1cc2c(s1)CCCC2	-1	-1
COc1cc(C=C2N=C(c3ccc(C)cc3)OC2=O)cc(Cl)c1OC	9	17
Cc1[nH]c(=S)sc1Cc1ccc(Cl)cc1	-1	-4
COc1cccc2cc(C(=O)Nc3ccc(Oc4ccc(Cl)cc4)cc3)c(=O)oc12	-6	-11
O=c1ccc(-c2ccccc2)nn1CCn1ccnc1-c1cccs1	26	8
O=C1OC(c2ccccc2)=N/C1=C\C=C\c1ccccc1	-6	-15
CCNc1scnc1C(=O)OCC(=O)N(C1CCCC1)C1CCS(=O)(=O)C1 (stereo unspecified)	1	-1
CCc1cc(-c2ccc(OC)c3ncccc23)ccc1NC(C)=O	6	3
Cc1cc(NC(=O)c2cccs2)n(-c2nc3c(c(=O)[nH]2)CCC3)n1	-1	-3
CCCn1nc(C)c2cnn(-c3ccccc3)c2c1=O	-8	-8
CCOC(=O)[C@H]1C[C@]2(CCCCNC2=O)N(C(=O)COc2ccccc2)[C@H]1c1ccco1	7	19
O=C(C1CCCN(Cc2nc(Cc3cccc(C(F)(F)F)c3)no2)C1)N1CCOCC1 (stereo unspecified)	4&-1	-1&-3
CCOC(=O)c1nn(-c2ccc(C)cc2)c(=O)c2c(NC(=O)COC)scc12	4	1
COc1ccc(-c2nc3ccccn3c2NC(=O)c2cccc(F)c2)cc1	-1	6
CCOC(=O)N1CCN(CC(=O)N2N=C(c3ccc(C)cc3C)CC2c2ccc(OCC)cc2)CC1 (stereo unspecified)	19	13
CC(=O)c1sc(Nc2ccccc2)nc1C	5	13
Cc1cccc(-n2c(SCC(=O)NC3CC3)nc3ccccc3c2=O)n1	1	6
CC(C(=O)NCC1CCCO1)n1ncn2cccc2c1=O (stereo unspecified)	-6	-9
CC(NC(=O)c1cnn(CC(=O)NC2CCCCC2)c1)C(C)(C)C (stereo unspecified)	-2	-3
CN1CCC(N(C)C(=S)Nc2ccc(SC(F)F)cc2)CC1	2	-1
NC(=O)c1ccc(NC(=O)c2c3c(nn2C2CCS(=O)(=O)C2)CCC3)cc1 (stereo unspecified)	12	9
CCCc1nc(N2CCN(C(=O)C3CCC3)CC2)c2c(-c3cccc(C(F)(F)F)c3)noc2n1	-3	-7
CC1(c2ccc3ccccc3c2)NC(=O)N(CC(=O)N2CCN(S(C)(=O)=O)CC2)C1=O (stereo unspecified)	8	1
CCOC(=O)c1c(NC(=O)c2cc3ccccc3oc2=O)sc(C(C)=O)c1C	-1	-9
NC(=O)C1CCCN1CCc1c(F)cccc1Cl (stereo unspecified)	13	4
CN(Cc1cnn(C)c1)C(=O)c1ccc(=O)n(C)n1	11	9

Entries listed so far with two or more sulfur atoms:
SMILES	NPYLR7 agonist	NPYLR7 agonist max-min
COc1ccc(OC)c(-n2c(CNC(=O)COc3ccccc3)nnc2SCC(=O)Nc2nccs2)c1	-3	3
Cc1[nH]c(=S)sc1Cc1ccc(Cl)cc1	-1	-4
CCNc1scnc1C(=O)OCC(=O)N(C1CCCC1)C1CCS(=O)(=O)C1 (stereo unspecified)	1	-1
CN1CCC(N(C)C(=S)Nc2ccc(SC(F)F)cc2)CC1	2	-1

Retrieved by compound from above, 3 records:
SMILES	NPYLR7 agonist	NPYLR7 agonist max-min
NC(=O)c1ccc(NC(=O)c2c3c(nn2C2CCS(=O)(=O)C2)CCC3)cc1 (stereo unspecified)	12	9
CC(=O)c1sc(Nc2ccccc2)nc1C	5	13
O=C(C1CCCN(Cc2nc(Cc3cccc(C(F)(F)F)c3)no2)C1)N1CCOCC1 (stereo unspecified)	4&-1	-1&-3

Following part
SMILES	NPYLR7 agonist	NPYLR7 agonist max-min
Cc1cccn2c(=O)c(C=C3SC(=S)N(CC(C)C)C3=O)c(N3CC(C)OC(C)C3)nc12 (stereo unspecified)	2	0
Oc1ccc(Br)cc1/C=N\Nc1nc(N2CCOCC2)nc(N2CCOCC2)n1	-5	-5
Cc1ccc2nc(N3CCN(S(C)(=O)=O)CC3)[nH]c2c1	0	-1
Cc1ccn2c(=O)nc(SCC(=O)c3ccc(Cl)cc3)nc2c1	0	0
C=CC(C)(C)OCC(O)CN1CCN(CC)CC1 (stereo unspecified)	-1	7
O=C(Nc1cnc2n1CCCC2)c1nccnc1C(=O)N1CCCCC1	14	12
Cc1ccc(NC(=O)N2CC(=O)N3CC(C)c4ccccc4C3C2)cc1F (stereo unspecified)	-5	0
CCOC(=O)c1sc(NC(=O)c2ccc(OC)c(OC)c2)c(C(=O)OCC)c1C	-4	-8
CCc1ncc(C(=O)N(C)CCc2nc3ccc(OC)cc3[nH]2)cn1	1	0
Cn1cccc1C(=O)OCC(=O)N1CCCCC1	2	10
OC(Cc1ccccc1)CN(Cc1ccc(F)cc1)CC1CC(c2ccc3c(c2)OCO3)=NO1 (stereo unspecified)	-3	3
COCCNc1cc(C(C)(C)C)nc2c(-c3ccccc3)cnn12	0	3
Cc1nc2c(c(-c3ccccc3F)c1C(=O)OCCC#N)C(=O)c1ccccc1-2	5	6
COCCn1c(SCC(=O)c2c[nH]c3ccccc23)nc2cc(C(=O)NCC(C)C)ccc2c1=O	-2	-15
COc1cccc(C(=O)Nc2c(C)nc3ccc(C)cn3c2=O)c1OC	4	1
CC(C)(C)C(=O)NCC1CCCN(C(=O)c2ccc3c(c2)OCO3)C1 (stereo unspecified)	-3	-4
Cc1ccc(C(=O)N2CC(=O)N(CCc3ccccc3)CC(O)C2)cc1 (stereo unspecified)	24	31
CCCCc1ccc(C(=O)N(CCCOC)Cc2cccn2Cc2ccc(F)cc2)cc1	2	16
COc1cccc(Cc2[nH]nc3ccnc(-c4ccc(C#N)cc4)c23)c1	1	1
Cc1c(-c2ccc(F)cc2)[n+](=O)c2c(n1[O-])CCCC2	-4	-10
COCCN(CC(=O)N(CCc1ccc(OC)c(OC)c1)Cc1ccco1)C(=O)Nc1ccc(OC)cc1OC	-5	-3
CCc1ccc(OCCCOc2cccc(/C=C3/C(=N)N4C=CSC4=NC3=O)c2)cc1	-3	-4
O=C1C2C3C=CC(C4CC34)C2C(=O)N1c1cc(Cl)ccn1 (stereo unspecified)	7	6
CCN(CC)CCSc1nnc(N2CCN(c3ccccc3OC)CC2)s1	-5	3
Cc1nn2c(=O)cc(CN3CC(C(N)=O)Cc4ccccc43)nc2s1 (stereo unspecified)	4	1
S=C(N=P(c1ccccc1)(N1CCOCC1)N1CCOCC1)N1CCCC1	19	9
CCc1cc(N2CCCC(C)(CO)C2)nc(N(C)C)n1 (stereo unspecified)	5	6
CCOC(=O)C1CCN(CC(=O)N2N=C(c3ccccc3OC)CC2c2ccc(Cl)cc2)CC1 (stereo unspecified)	0	0
NC(=O)Cn1nc(-c2cccs2)c2sc(N3CCCCC3)nc2c1=O	-2	-8
c1coc(CN2CCC(NCC3CCN(C4CCCC4)CC3)CC2)c1	-4	-7
NC(=O)CC1CCN(Cc2ccc(F)c3cccnc23)CC1	8	7
N#CC(C(=O)c1ccc(F)cc1)c1nnc2n1CCCCC2 (stereo unspecified)	-2	-6
O=C(NC1(c2ccccc2)CC1)c1cc(COc2ccc(-n3cncn3)cc2)on1	-7	-9
COC(=O)c1ccc(OCC(O)CN2CCN(S(=O)(=O)c3ccccc3Cl)CC2)cc1 (stereo unspecified)	2	3
Cc1ccccc1C(=O)N[C@@H]1CCCCC1NC(=O)C1CCN(C(=O)C23CC4CC(CC(C4)C2)C3)CC1 (stereo partly specified)	22	14
CCS(=O)(=O)Oc1ccc(Cl)cc1CN(Cc1ccco1)C(=O)NC(C)C	26	28
Fc1ccc(NCc2cn3cccnc3n2)cc1	3	3
CCN(CC)C1=C(c2c(C)[nH]n(-c3ccc(F)cc3)c2=O)C(=O)N(c2ccc(C)cc2)C1=O	19	31
CCc1nc2ccc(C(=O)N(C)Cc3ccco3)cn2c1N(C)Cc1ccc(N(C)C)cc1	5	-5
CCc1cc(S(=O)(=O)N2CCCCC2)ccc1OC	-1	28
COc1cccc(CNCc2ccc3c(c2)OCCO3)c1	15	6
COc1ccc(Cl)c(C2=NOC(C(=O)NC(C)C(=O)NCc3ccco3)C2)c1 (stereo unspecified)	12	13
Fc1ccccc1-n1cnnc1SCc1nc2ccccc2o1	8	3
Cc1ccccc1-c1ncc(-c2c(-c3ccccc3)ncn2CCO)cn1	-1	0
COc1cc(OC)c(C(=O)Nc2ccc(N3CCOCC3)cc2)cc1OC	27	14
C=CCNC(=O)C(C1CCCC1)N1CCN(C(=O)c2cccc(OC)c2)CC1 (stereo unspecified)	-6	-3
CCCn1c(O)c(C=NNC(=O)C2CCCCC2)c(=O)[nH]c1=S	0	-1
Oc1cc(-c2cccc(Cl)c2)cc2c1OCCN(Cc1cscn1)C2	0	-5
COc1ccc2ccccc2c1C1NC(=O)C2CCCCN21 (stereo unspecified)	3	-2
CSc1nccc(N2CCCC(CCC(=O)NCc3ccc(C)o3)C2)n1 (stereo unspecified)	12	-3
Cc1cc(C)n(-c2ncnc3sc(C)c(C)c23)n1	1	-1
CCN1CCN(S(=O)(=O)c2cc(C(=O)OC)cs2)CC1	8	7
CNC(=O)c1ccc(CN(C)C(=O)Cc2ccc3c(c2)CCC3)cc1	-2	1
COc1ccc(NC(=O)Cn2nc(C)c([N+](=O)[O-])c2C)cn1	-3	-13
N#CC1C(=N)SC(=N)C(C#N)C1c1ccc(Br)cc1 (stereo unspecified)	-2	-1
CCOC(=O)C1=C(C)N(c2ccc(N(C)C)cc2)C(C)=C(C(=O)OCC)C1c1ccccc1	1	0
Cc1cc(C(=O)N[C@@H]2C[C@H]3C(=O)N(C)CC(=O)N3C2)n[nH]1	8	7
Cc1c(C#N)c(NC(=O)CNC(C)(C)C)n(-c2ccc(F)cc2)c1C	-1	25
Cc1onc(-c2ccccc2)c1CNC(=O)c1cncn1-c1cccc(-c2ccccc2C(F)(F)F)c1	8	8
Cc1cccc(N2C(=O)c3ccc(-c4nc5ccccc5c(=O)o4)cc3C2=O)c1C	1	9

Sorted by molar mass (smallest number first): three of the compounds above.
SMILES	NPYLR7 agonist	NPYLR7 agonist max-min
CCc1cc(N2CCCC(C)(CO)C2)nc(N(C)C)n1 (stereo unspecified)	5	6
Cc1cccc(-n2c(SCC(=O)NC3CC3)nc3ccccc3c2=O)n1	1	6
CCOC(=O)C1CCN(CC(=O)N2N=C(c3ccccc3OC)CC2c2ccc(Cl)cc2)CC1 (stereo unspecified)	0	0

(list continues)
SMILES	NPYLR7 agonist	NPYLR7 agonist max-min
Fc1ccc(NC(=S)NC2CCCC2)cc1Cl	7	6
Cc1cccc(CSc2nnc(C(Cc3ccccc3)NC(=O)COCc3ccccc3)n2-c2ccc([N+](=O)[O-])cc2)c1 (stereo unspecified)	20	23
CCSC1=C(C#N)C2(CCCCC2)C(C#N)C(N)=N1 (stereo unspecified)	9	12
CCCN(CC(=O)Nc1cc(C(C)(C)C)nn1-c1ccc(Cl)cc1)C(=O)Nc1c(C(C)C)cccc1C(C)C	20	18
CC1CCc2c(C(=O)N3CCC(N(C)S(C)(=O)=O)CC3)csc2C1 (stereo unspecified)	7	-6
CCNS(=O)(=O)c1cc(Br)ccc1OC	0	-4
CN(Cc1nc(-c2ccccc2)cs1)C1CCc2c(c(C(=O)N3CCSCC3)nn2C)C1 (stereo unspecified)	13	-1
CC(=O)c1ccc(N=Nc2c(O)ccc3c(C)cc(=O)oc23)cc1	-1	-3
O=C(COc1ccc(OCc2ccccc2)cc1)NCc1ccccc1S(=O)(=O)N1CCOCC1	12	15
O[C@H]1C[C@@H]2C[C@H](c3ccccn3)OC[C@]2(O)[C@@H]1NCc1ccc(F)cc1	2	10
Cc1cc(C)n(-c2cc(NCCNS(=O)(=O)N(C)C)ncn2)n1	-5	-10
CCN(C(=O)c1cc2c(cc1OC)CCC2)C(C)CO (stereo unspecified)	-1	9
CCOC(=O)N(C)c1c(CC)nc2c(OCc3ccc(F)cc3)cccn12	-13	-19

These rows are one share of the data, so the mix of outcomes need not match the whole.
